# Compound activity from PubChem BioAssay.
# DUX4 txn inh: blocks DUX4-driven transcriptional activation; AID 1224904; activity change, negative = inhibition, % (test concentration not listed); actives 0.8% (n = 37,000); 293T-iDUX4 ZSCAN4-Gaussia luciferase reporter, 24 h; active compounds read low;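 active means -10% or lower and over 25 points stronger than a control reporter; inconclusive means -10% or lower with a smaller gap; inactive means above -10%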;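 further: 0% = median of neutral control wells and -100% = median of positive control wells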
# DUX4 txn inh difference: further read-out of DUX4 txn inh, marked with its call; Gaussia minus Italica difference, %; measured here: selective DUX4 reporter inhibition;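 worked out from the two reporters; negative = selective loss of the DUX4 reporter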
# DUX4 txn inh control: also measured in DUX4 txn inh; calls as there; activity change, negative = inhibition, %; measured here: Italica tet-on control reporter;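 0 = neutral control and -100 = positive control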
# The depositor's hits bear a star; ? = inconclusive; . = not tested or not shown.
# A first look:
DUX4 txn inh | DUX4 txn inh difference | SMILES | DUX4 txn inh control
5.8 | 16.4 | CN(C)CCCNC(=O)C[C@@H]1CC[C@H]2[C@@H](COc3ccc(NC(=O)c4ccccc4F)cc3C(=O)N2C)O1 | -10.6
4.3 | -1.9 | CCNC(=O)[C@@H]1[C@@H](CO)[C@@H]2Cn3c(cccc3=O)[C@H]1N2CC1CCOCC1 | 6.2
23.5 | 16.5 | CC(=O)N1CCCCN2[C@H](CO)[C@H](c3ccc(Br)cc3)[C@@H]2C1 | 7.0
-1.5 | -4.1 | Cc1ccc(S(=O)(=O)Nc2ccc3c(c2)CC(=O)N([C@@H](C)CO)C[C@@H](C)[C@H](CN(C)S(=O)(=O)c2ccccc2)O3)cc1 | 2.6

# This part in full, repeating the preview:
DUX4 txn inh | DUX4 txn inh difference | SMILES | DUX4 txn inh control
5.8 | 16.4 | CN(C)CCCNC(=O)C[C@@H]1CC[C@H]2[C@@H](COc3ccc(NC(=O)c4ccccc4F)cc3C(=O)N2C)O1 | -10.6
4.3 | -1.9 | CCNC(=O)[C@@H]1[C@@H](CO)[C@@H]2Cn3c(cccc3=O)[C@H]1N2CC1CCOCC1 | 6.2
23.5 | 16.5 | CC(=O)N1CCCCN2[C@H](CO)[C@H](c3ccc(Br)cc3)[C@@H]2C1 | 7.0
-1.5 | -4.1 | Cc1ccc(S(=O)(=O)Nc2ccc3c(c2)CC(=O)N([C@@H](C)CO)C[C@@H](C)[C@H](CN(C)S(=O)(=O)c2ccccc2)O3)cc1 | 2.6
2.1 | -1.4 | COc1ccccc1C(=O)N1C[C@H]2[C@@H](c3ccccc31)[C@H](CO)N2Cc1ccc(F)cc1 | 3.5
5.5 | 7.1 | COc1ccc(NC(=O)Nc2ccc3c(c2)[C@H]2C[C@@H](CC(=O)O)O[C@@H](CO)[C@H]2O3)cc1 | -1.6
7.2 | 8.8 | CC=Cc1ccc2n(c1=O)C[C@@H]1[C@@H](CO)[C@H](C(=O)NCCC)[C@H]2N1CC1CCCC1 (mixture of isomers) | -1.6
0.6 | -4.1 | C[C@@H]1CCCCO[C@H](CN(C)Cc2ccc(C(=O)O)cc2)[C@@H](C)CN([C@@H](C)CO)C(=O)c2cc(NC(=O)NC3CCCCC3)ccc2O1 | 4.8
29.9 | 17.2 | C[C@@H](O)C#Cc1ccc([C@H]2[C@@H](CO)N3CCCCN(S(=O)(=O)c4ccccc4)C[C@H]23)cc1 | 12.7
4.8 | 2.8 | CCCC(=O)Nc1ccc2c(c1)C(=O)N(C)C[C@H](OC)[C@@H](C)CN(C(=O)c1ccccn1)[C@H](C)CO2 | 2.0
11.5 | 6.0 | O=C(C[C@@H]1CC[C@@H]2[C@H](COC[C@H](O)CN2C(=O)Nc2ccccc2)O1)NCc1ccncn1 | 5.5
10.7 | 9.0 | CCC(=O)N1[C@@H](CO)[C@H](c2ccccc2)C12CN(C(=O)c1ccc3c(c1)OCO3)C2 | 1.7
-3.0 | -4.8 | O=C(O)C[C@H]1C[C@@H]2c3cc(NC(=O)Nc4ccccc4F)ccc3O[C@@H]2[C@@H](CO)O1 | 1.8
2.6 | 3.4 | Cc1noc(C)c1S(=O)(=O)N(C)C[C@@H]1OCCCC[C@@H](C)Oc2ccc(N(C)C)cc2C(=O)N([C@@H](C)CO)C[C@H]1C | -0.9
12.8 | 5.5 | OC[C@@H]1[C@@H](c2ccccc2)C2(CN(Cc3ccccn3)C2)N1Cc1cncnc1 | 7.3
-5.4 | -5.0 | C[C@H]1CN([C@@H](C)CO)C(=O)c2cc(N(C)C)ccc2O[C@@H]1CN(C)Cc1ccc(Oc2ccccc2)cc1 | -0.4
3.5 | 7.2 | C[C@@H]1CN([C@H](C)CO)C(=O)CCCn2cc(nn2)CO[C@@H]1CN(C)C(=O)Nc1cccc2ccccc12 | -3.7
2.0 | -4.6 | COc1ccc2c3c(n(C)c2c1)[C@@H](CO)NCC31CCN(CC2CCCCC2)CC1 | 6.5
-3.3 | -3.2 | CCN1[C@@H]2c3ccc(/C=C/c4ccccc4)c(=O)n3C[C@H]1[C@H](CO)[C@H]2C(=O)NCc1ccccn1 | -0.1
10.4 | -0.3 | O=C(CN1CCOCC1)N1CCCCN2[C@H](C1)[C@@H](c1ccc(-c3ccccc3F)cc1)[C@@H]2CO | 10.7
-1.8 | -5.9 | CO[C@H]1CC[C@H]2CCN(C)C(=O)C[C@@H](c3ccccc3)CN(C)C(=O)c3cc(C#N)ccc3OC[C@H]1O2 | 4.1
-0.4 | 0.3 | CC(=O)N(C)C[C@@H]1[C@@H](c2ccc(-c3ccc(F)cc3)cc2)[C@H](CO)N1C(C)=O | -0.8
4.9 | -7.3 | O=C(C[C@H]1CC[C@H]2[C@@H](COC[C@H](O)CN2Cc2ccccc2)O1)NCCCN1CCOCC1 | 12.3
4.5 | 3.0 | CO[C@H]1CN(C)C(=O)c2cc(NC(C)=O)ccc2OC[C@H](C)N(S(C)(=O)=O)C[C@H]1C | 1.6
3.6 | 7.2 | O=C(c1ccc2c(c1)OCO2)N1CC(=O)N2[C@@H](CO)[C@H](c3ccc(C#Cc4ccccc4)cc3)[C@@H]2C1 | -3.6
-1.7 | -1.2 | C[C@H](NC(=O)[C@H]1[C@H](CO)[C@H]2Cn3c(ccc(-c4cccnc4)c3=O)[C@@H]1N2C)c1ccccc1 | -0.5
-2.9 | 12.9 | COc1ccc(C#Cc2ccc([C@H]3[C@H](CO)N4CCCCN(C(=O)c5ccncc5)C[C@@H]34)cc2)cc1 | -15.9
0.7 | 7.4 | COc1cccc(NC(=O)Nc2ccc3c(c2)C(=O)N(C)C[C@H](OC)[C@H](C)CN(C)[C@@H](C)CO3)c1 | -6.6
-4.0 | -6.5 | C[C@@H]1CN([C@H](C)CO)C(=O)Cc2cc(NS(=O)(=O)c3cn(C)cn3)ccc2O[C@@H]1CN(C)Cc1ccc2c(c1)OCO2 | 2.5
5.3 | -0.6 | CO[C@@H]1CN(C)C(=O)c2cc(NC(=O)Cc3ccccc3)ccc2OC[C@H](C)N(C(=O)c2ccccc2F)C[C@@H]1C | 5.9
-2.2 | -6.3 | CCCNC(=O)[C@H]1[C@H](CO)[C@H]2Cn3c(ccc(C4=CCCC4)c3=O)[C@@H]1N2C(=O)CC | 4.1
5.2 | 3.0 | CNC[C@H]1OCCCC[C@@H](C)Oc2ccc(NC(=O)c3ccncc3)cc2C(=O)N([C@@H](C)CO)C[C@H]1C | 2.2
0.2 | 0.3 | CC(C)NC(=O)N(C)C[C@H]1Oc2ccc(NS(=O)(=O)c3ccc(Cl)cc3)cc2C(=O)N([C@H](C)CO)C[C@H]1C | -0.2
-4.3 | -12.4 | CN(C)CC(=O)N1[C@H](C(=O)NCc2ccccc2F)[C@@H](CO)[C@@H]2Cn3c(cccc3=O)[C@@H]21 | 8.1
? | . | CC=Cc1ccc2n(c1=O)C[C@H]1[C@H](CO)[C@@H](C(=O)Nc3nccs3)N(Cc3cc(F)ccc3F)[C@@H]21 (mixture of isomers) | .
-1.2 | -2.0 | CN(C)C(=O)c1ccc(-c2cccc(-c3nc(C(=O)NCc4ccccc4)cc4c3[C@H](CCO)N([S@@](=O)C(C)(C)C)C4)c2)cc1 | 0.9
-0.2 | 3.4 | CN1c2ccc(-c3ccccc3F)cc2[C@H]2[C@H](CCN2C(=O)Cc2ccccn2)[C@H]1CO | -3.6
4.3 | -4.3 | CCCNC(=O)Nc1ccc2c(c1)C(=O)N(C)[C@H]1CC[C@H](CC(=O)NCc3ccccc3)O[C@@H]1CO2 | 8.6
4.0 | -10.8 | COc1ccc(S(=O)(=O)N2[C@@H]3CNC[C@H]2C3c2ccc(-c3ccccc3F)cc2)cc1 (stereo not given in full) | 14.7
-2.8 | 1.3 | C[C@@H]1CN([C@H](C)CO)C(=O)CCCn2cc(nn2)CO[C@@H]1CN(C)CC1CCCCC1 | -4.1
7.8 | 1.8 | CN1C[C@@H](O)COC[C@@H]2O[C@H](CC(=O)NC3CCCC3)CC[C@H]21 | 6.0
-7.2 | -1.1 | O=C(C[C@@H]1C[C@H]2c3cc(NC(=O)C4CCC4)ccc3O[C@H]2[C@H](CO)O1)NCc1ccc(Cl)cc1 | -6.1
9.1 | 3.5 | CN(C)CC#Cc1ccc([C@@H]2[C@H](CO)N3C(=O)CN(C(=O)c4ccc(F)cc4)C[C@@H]23)cc1 | 5.6
7.3 | 2.0 | COc1ccc(-c2ccc([C@@H]3[C@@H](CO)N4C(=O)CN(Cc5ccccc5)C[C@H]34)cc2)cc1 | 5.3
8.1 | 8.7 | COc1cccc(S(=O)(=O)N(C)C[C@H]2OCc3ccccc3-c3ccccc3C(=O)N([C@@H](C)CO)C[C@@H]2C)c1 | -0.7
? | . | O=C(Nc1ccccc1)N1CCCCN2[C@H](CO)[C@@H](c3ccc(-c4ccncc4)cc3)[C@@H]2C1 | .
5.5 | 3.9 | O=C(C[C@@H]1CC[C@@H]2[C@H](COC[C@@H](O)CN2Cc2ccc(F)cc2)O1)NCc1ccccc1Cl | 1.6
3.1 | 10.9 | N#C[C@@H]1[C@@H](c2ccccc2-c2ccccc2F)[C@H](CO)N1C(=O)C1CCC1 | -7.9
? | . | C[C@H]1CN([C@@H](C)CO)C(=O)c2ccccc2-c2ccccc2CO[C@H]1CN(C)Cc1cccc(F)c1 | .
1.1 | -1.0 | CO[C@@H]1CN(C)C(=O)c2ccc(NC(=O)C3CCOCC3)cc2OC[C@H](C)N(Cc2cccnc2)C[C@@H]1C | 2.1
-0.9 | 0.1 | C/C=C/c1ccc([C@@H]2[C@H](CO)N[C@H]2CNC(=O)c2ccccc2F)cc1 | -1.1
? | . | COc1ccc2c3c(n(C)c2c1)[C@@H](CO)N(Cc1ccccc1F)CC31CCN(CC2CC2)CC1 | .
-6.1 | -15.0 | O=C(NCc1ccc2c(c1)OCO2)[C@@H]1[C@@H](CO)[C@@H]2Cn3c(cccc3=O)[C@H]1N2Cc1cncnc1 | 8.9
2.5 | -0.4 | CN1C(=O)c2cc(NC(=O)Cc3cccs3)ccc2OC[C@H]2O[C@H](CC(=O)N[C@@H]3CCN(Cc4ccccc4)C3)CC[C@H]21 | 2.9
-0.1 | -1.3 | CO[C@H](CN(C)C(=O)c1ccccc1F)[C@H](C)CN([C@@H](C)CO)S(=O)(=O)c1ccc(F)cc1 | 1.2
2.6 | -0.7 | C[C@H](NC(=O)C[C@H]1C[C@H]2c3cc(NC(=O)C4CCOCC4)ccc3O[C@H]2[C@H](CO)O1)c1ccccc1 | 3.3
3.7 | -15.3 | COc1ccc2c3c([nH]c2c1)[C@@H](CO)N(C(=O)CN1CCOCC1)CC31CN(C(=O)NC(C)C)C1 | 19.0
2.9 | 2.7 | CC(C)(C)[S@](=O)N1Cc2cc(C(=O)N3CCCCC3)nc(-c3cccc(-c4ccccc4F)c3)c2[C@@H]1CCO | 0.2
4.7 | -3.4 | CN1CCN(C(=O)C[C@@H]2CC[C@@H]3[C@H](COC[C@H](O)CN3C(=O)c3ccccc3F)O2)CC1 | 8.1
13.4 | 16.3 | CN(C)C(=O)C[C@H]1CC[C@@H]2[C@H](COC[C@@H](O)CN2C(=O)c2ccncc2)O1 | -2.9

# Full records as entered above. Values in the order: DUX4 txn inh | DUX4 txn inh difference | DUX4 txn inh control
# CO[C@H](CN(C)C(=O)c1ccccc1F)[C@H](C)CN([C@@H](C)CO)S(=O)(=O)c1ccc(F)cc1 across the screens: -0.1 | -1.3 | 1.2
# CN1C(=O)c2cc(NC(=O)Cc3cccs3)ccc2OC[C@H]2O[C@H](CC(=O)N[C@@H]3CCN(Cc4ccccc4)C3)CC[C@H]21 across the screens: 2.5 | -0.4 | 2.9

# (cont.)
DUX4 txn inh | DUX4 txn inh difference | SMILES | DUX4 txn inh control
6.3 | 2.6 | COc1ccccc1NC(=O)N1C[C@@H](O)COC[C@@H]2O[C@H](CC(=O)NCCc3ccccc3)CC[C@H]21 | 3.7
5.6 | -4.2 | CN(C)C(=O)c1ccc(-c2ccccc2[C@@H]2[C@@H](C#N)N(C(=O)C3CCC3)[C@@H]2CO)cc1 | 9.8
0.9 | 4.5 | O=C(C[C@@H]1C[C@H]2c3cc(NC(=O)C4CCC4)ccc3O[C@H]2[C@@H](CO)O1)NC1CCCC1 | -3.7
6.3 | 5.3 | COc1cccc(S(=O)(=O)N2CC[C@H]3[C@@H](CO)N(C)c4ccc(-c5ccccc5OC)cc4[C@H]32)c1 | 1.0
-2.6 | 1.0 | CCN(C[C@@H]1[C@@H](c2ccc(-c3cccnc3)cc2)[C@@H](CO)N1C(C)=O)C(C)=O | -3.7
0.7 | 8.1 | COc1ccc(CN2C[C@H](O)COC[C@H]3O[C@@H](CC(=O)NCCN4CCCC4)CC[C@@H]32)cc1 | -7.4
3.1 | 15.4 | O=C(NCc1ccccc1F)[C@H]1[C@H](CO)[C@H]2Cn3c(cccc3=O)[C@H]2N1CC1CCCC1 | -12.2
4.6 | 3.0 | O=C(O)[C@H]1[C@H](CO)[C@H]2Cn3c(ccc(-c4cncnc4)c3=O)[C@H]2N1C(=O)C1CCCC1 | 1.6
7.6 | 1.6 | CN(C)CC(=O)N1CC[C@@H]2[C@H]1c1cc(Br)ccc1N(C)[C@@H]2CO | 6.0
2.3 | -4.6 | CN(C)C(=O)c1ccc(-c2ccc(C3[C@@H]4CN(C(=O)c5cnccn5)C[C@H]3N4)cc2)cc1 (stereo not given in full) | 6.9
3.1 | -0.5 | Cc1cccc(S(=O)(=O)N(C)C[C@H]2OCc3ccccc3-c3ccccc3C(=O)N([C@@H](C)CO)C[C@H]2C)c1 | 3.6
-1.4 | 1.6 | COc1ccc(CN2[C@@H]3CN(C(=O)NC(C)C)c4ccccc4[C@@H]3[C@@H]2CO)cc1 | -3.0
7.5 | 11.2 | CC(C)NC(=O)N1[C@H](CO)[C@H](c2ccccc2)C12CN(C(=O)CN(C)C)C2 | -3.7
-0.7 | -4.0 | C[C@@H]1CCCCO[C@H](CN(C)S(=O)(=O)c2cn(C)cn2)[C@@H](C)CN([C@@H](C)CO)C(=O)c2cc(NC(=O)Nc3ccc(C(F)(F)F)cc3)ccc2O1 | 3.2

# Not all compounds are listed, so the mix of outcomes need not match the whole.
